# Screening data: PubChem, National Center for Advancing Translational Sciences (NCATS)
# Menin-MLL FL inh: qHTS Assay for Inhibitors Targeting the Menin-MLL Interaction in MLL Related Leukemias: Competition With Fluorescein Labeled MLL-derived Peptide. FP activity change, % at 61.4 µM. Fluorescence polarization, fluorescein-MLL peptide displacement from menin. 290,000 tested, under 10 active; inconclusive = falling polarisation curve, or a change in total fluorescence; inactive = total fluorescence flat and polarisation flat or rising; no compound was filed as active; the % refers to the polarisation; negative = inhibition;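 also: % of control where 0% means no effect; inhibitors lower the polarisation; unlabelled MLL peptide was the positive control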
# gsp antag: qHTS for Antagonists of gsp, the Etiologic Mutation Responsible for Fibrous Dysplasia/McCune-Albright Syndrome: qHTS; gsp-mutant cells, cAMP HTRF, 30 min; control for the full effect not named in the record; Potency, µM (doses to about 76.9 µM), for inactives: at the top dose activity change, negative = inhibition, actives largely listed as inhibitors; actives 0.4% (n = 340,000); active = falling curve of any shape with a large fitted effect; inconclusive = falling curve, mostly with a smaller effect; inactive = flat or rising curve; cell line not stated here;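 also: intracellular cAMP measured with PDE inhibitor Ro 20-1724 present during compound exposure; potency is read from the fitted curve at half-maximal effect; % is scaled to controls: 0 for no effect and ±100 for the full control effect; nearly all actives have a fitted effect of over 65% in size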
#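 HTRF cAMP measurement after 30 min RT detection following 30 min, 37C compound treatment alongside […] (added as 300 uM solution) in G418-selected cells seeded at 2000/well and grown 16–24 h.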
# gsp ag: qHTS for Agonist of gsp, the Etiologic Mutation Responsible for Fibrous Dysplasia/McCune-Albright Syndrome: qHTS | gsp mutant cells, cAMP HTRF, 30 min; control for the full effect not named in the record | Potency, µM (titrated, usually from 76.9 µM), for the others: at the highest dose activation (cAMP increase), most hits filed as activators | actives 0.13% (n = 340,000) | AID 624287, 2012; active = well fitted activation curve with a large enough effect; inconclusive = small, poorly fitted or top-dose-only effect, or another doubt; inactive = no such curve, though single readings can be large or run the other way; cell line not stated here;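 also: phosphodiesterase inhibitor Ro 20-1724 added with compounds to block cAMP breakdown; potency is read from the fitted curve at half-maximal effect; nearly all actives have a fitted effect of over 60% in size; about a fifth of the inactives were tested at one dose only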
#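 Cells stably selected in G418 were plated at 2000/well, grown 16-24 hr, then given compounds in DMSO with the PDE inhibitor […] (300 uM solution added) for 30 min at 37C; cAMP was read by HTRF.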
# ClpP mod: qHTS Assay for Activators of ClpP; Potency, µM (titrated, usually from 57.5 µM), for the others: at the top dose activity change, negative = active; ATP-dependent Clp protease proteolytic subunit (Bacillus subtilis (strain 168)), P80244; purified B. subtilis ClpP, FRET peptide cleavage, 20 min; actives 1.9% (n = 340,000); active = well fitted falling curve with a large enough effect; inconclusive = small, poorly fitted or top-dose-only effect; inactive = no such curve, though single readings can be large or run the other way; also: potency is read from the fitted curve at half-maximal effect; the source files actives as falling curves though it sought activators and does not explain the sign; nearly all actives have a fitted effect of over 65% in size; many hits overshoot -100%
# Target sequence (P80244 whole entry, looked up): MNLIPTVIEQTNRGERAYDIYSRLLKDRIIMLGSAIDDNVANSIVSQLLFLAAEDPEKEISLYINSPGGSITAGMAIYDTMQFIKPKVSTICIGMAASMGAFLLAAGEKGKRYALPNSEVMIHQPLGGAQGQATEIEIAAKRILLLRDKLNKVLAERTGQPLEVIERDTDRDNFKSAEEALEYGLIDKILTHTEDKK
#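 Purified B. subtilis ClpP, 10 microg/mL final in Tris/HCl pH8 with KCl, BSA, glycerol and Tween-20, cleaved an Abz/nitrotyrosine-quenched decapeptide. Fluorescence (ex 320, em 430) was read at 0 and 20 min at room temperature. Delta was normalized to 5.8 microM ADEP and DMSO/no-enzyme controls.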
# D2 agonist: Beta-Arrestin HTS for Positive Allosteric Modulators of the Human D2 Dopamine Receptor: Agonists; D(2) dopamine receptor (Homo sapiens), P14416; DiscoveRx PathHunter D2 beta-arrestin, luminescence, 90 min; 100% = 57 uM dopamine signal; activation, % (no concentration beside the values); actives 0.084% (n = 360,000); in the data active = activation above about 40%; inconclusive = about 15% to 40%; inactive = below about 15%; also: compound concentration not given in the record; the text of the record calls up to 30% inactive
# Target sequence (P14416 whole entry, looked up): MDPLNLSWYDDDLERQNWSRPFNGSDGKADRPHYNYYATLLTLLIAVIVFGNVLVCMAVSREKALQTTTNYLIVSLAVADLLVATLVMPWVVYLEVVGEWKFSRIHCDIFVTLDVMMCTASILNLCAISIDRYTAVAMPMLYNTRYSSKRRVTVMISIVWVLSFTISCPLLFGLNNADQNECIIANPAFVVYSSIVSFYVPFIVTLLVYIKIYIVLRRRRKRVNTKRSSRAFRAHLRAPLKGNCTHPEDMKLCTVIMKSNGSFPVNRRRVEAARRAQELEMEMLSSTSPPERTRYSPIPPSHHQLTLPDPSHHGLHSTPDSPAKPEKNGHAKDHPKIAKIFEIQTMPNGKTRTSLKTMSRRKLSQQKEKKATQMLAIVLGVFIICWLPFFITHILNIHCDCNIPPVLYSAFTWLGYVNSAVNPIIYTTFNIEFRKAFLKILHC
#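 DiscoveRx PathHunter D2 beta-arrestin cells (2,100/well) attached overnight, then compound-stimulated 90 min at 37 C in HBSS/10 mM HEPES/0.1% Tween-20 buffer; beta-galactosidase complementation read by luminescence after 1 h at ambient temperature. Dopamine 57 uM final (EC100) as control.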
# PINK1 expr mod: A Quantitative High throughput Screen to Identify Chemical Modulators of PINK1 Expression. PINK1 immunofluorescence, high-content cytometry, 24 h. Potency, µM (series often up to 76.6 µM), inactives show at the highest dose activation (PINK1 increase), usual class: activators. actives 0.2% (n = 410,000). AID 624263, 2012; active = well fitted activation curve with a large enough effect; inconclusive = small, poorly fitted or top-dose-only effect; inactive = flat fitted curve, though single readings scatter; cell line not stated here;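 also: potency is read from the fitted curve at half-maximal effect; % of control where 0% means no effect; nearly all actives have a fitted effect of over 65% in size; a mitochondrial uncoupler was the plate control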
#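 Stable cell line, 250 cells/well, 12 h attachment; compounds pinned at 5 concentrations, 24 h; CCCP control. Fixed with nuclear dye, primary antibodies 12 h at 10 degrees C, secondary plus cell stain; laser-scanning cytometer read.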
# Sfp inh: qHTS Assay for Inhibitors of Bacillus subtilis Sfp phosphopantetheinyl transferase (PPTase) | Biochemical Sfp PPTase activity, qHTS | Potency, µM, for the others: max response, negative = inhibition, hits mostly inhibitors | actives 3.5% (n = 310,000) | AID 1490, 2009; active = well fitted inhibition curve with a large enough effect; inconclusive = small, poorly fitted or top-dose-only effect, or another doubt; inactive = no such curve, though single readings can be large or run the other way;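 also: the enzyme is Sfp with the accession as filed and its product quenches rhodamine fluorescence; potency is read from the fitted curve at half-maximal effect; 0% = enzyme reaction without inhibitor and -100% = no enzyme wells; top concentration of the series not given in the record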
#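 Step 1, compound plus 15 nM Sfp-PPTase, 15 min, room temperature. Step 2, add rhodamine-CoA (5 uM) and BHQ-2-YbbR (12.5 uM). Step 3, read 525/598 nm fluorescence at 0 and 30 min.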
# Active calls of the source: *; ? = inconclusive; . = not tested or not shown; & = joins results of further samples; [ ] = dose if it differs, or a comment.
SMILES,Menin-MLL FL inh,gsp antag,gsp ag,ClpP mod,D2 agonist,PINK1 expr mod,Sfp inh
Cc1ccc(C(C)C)cc1OCCn1cncn1,2.1,0%,-7%[15.4 µM],-0.2%,6.2,1.1%,?
COc1ccc(OCC(=O)Nc2ccccc2-c2ccccc2)cc1,3.4,5%,19%,.,0.4,4.0%,11%
CCOC(=O)C(Cc1ccccc1)NC(=O)CCc1nnc2ccc(N3CCOCC3)nn12 (stereo not drawn),-2.1,5%,20µM*,-0.7%,-4.7,0.5%,8%
Cc1ccc(S(=O)(=O)N2CCN(S(=O)(=O)N3CCOCC3)CC2)cc1C,-0.4,-1%,-3%,-1.8%,-1.6,2.7%[38.3 µM],24%
O=C(Nc1cccc(C(F)(F)F)c1)Oc1ccc(Cl)c2cccnc12,-14,0%,0%[15.4 µM],.,-6.2,?,20%
COc1ccc(CNC(=O)/C(C#N)=C2\N=C(NC(=O)c3cccs3)c3ccccc32)cc1,13,-14%,10%,-8.6%,-4.3,0.4%,27%
COc1ccccc1N1CCN(C2CCCN(C(=O)CN3CCCCC3=O)C2)CC1 (stereo not drawn),-2.5,6%,9%,-2.3%,1.3,-0.3%,5%
CCOC(=O)c1oc2ccccc2c1CSc1nnnn1-c1ccccc1,-1.9,2%,-34%[inhibitor],0.0%,2.0,2.4%,14%
C=CCn1c(SCc2c(C)noc2C)nc2sc3c(c2c1=O)CCCCC3,1.9,-3%,-5%,-4.5%,1.9,4.6%,-20%
Cc1cc(N(C)C)ccc1N=Nc1ccc(N)cc1,.,6%,4%[15.4 µM],1.4%,-0.5,12%,.
O=C1CN(c2ccccc2)C(=O)N1,2.3,11%,-2%[15.4 µM],.,-1.8,1.9%,8%
COc1cccc(OCCOc2ccccc2OC(C)C)c1,4.5,-5%,30%,0.3%,-2.3,7.1%,-1%
Cn1c(N)c(C(=O)CSc2nnc(-c3cccs3)n2C2CC2)c(=O)[nH]c1=O,.,17%,?,-5.9%,?,13%,.
Cc1cc(C(=O)OCC(=O)N(C)c2ccccc2)ccc1[N+](=O)[O-],-5.2,2%,27%,-0.4%,-5.8,-0.3%,6%
Cc1ccc(NC(=O)CN(C)C(=O)c2ccc(Br)o2)cc1,-0.6,2%,27%,.,-0.5,0.9%,19%
CCN(CC)c1ncnc2c1sc1nc(C)cc(C)c12,2.2,8%,-2%,-18%,-0.6,-2.7%,-12%
COCCCNC(=S)N1CCN(c2nc(-c3ccc(F)cc3)cs2)CC1,9.5,?,-9%,-0.1%,7.5,1.0%,7%
Cc1ccc(OCc2cc(C(=O)N(CCO)Cc3cccs3)no2)cc1C,.,0%,2%[15.4 µM],11%,-2.3,0.1%,-14%
Cc1nn(-c2ccccc2)c(C)c1C(=O)OCC(=O)Nc1ccccc1Cl,.,.,-58%[inhibitor],-1.2%,-2.3,0.3%,.
COc1ccc(C)cc1S(=O)(=O)NC1CC1,-1.8,2%,6%[15.4 µM],-2.9%,0.7,0.7%,10%
COc1cc(C2SCCS2)cc(Br)c1Oc1ncccc1[N+](=O)[O-],0.6,-9%,-8%[15.4 µM],0.8%,2.3,-1.5%,10%
COC(=O)CN1C(=O)C(C)=C(c2ccc(C)cc2)S1(=O)=O,3.8,-21%,-32%[inhibitor],-22%,-4.0,3.8%[38.3 µM],7%
Nc1csnc1C(=O)O,0.2,6%,5%,-3.0%,-2.5,-2.4%,-3%
C=CCNc1nc(Nc2ccc(OC)cc2)nc(OCC)n1,0.9,0%,-18%,-6.2%,-0.9,.,1%
CC1=CC2C(C3C=CC2(C)C(=O)C3(C)O)C(C)(O)C1=O (stereo not drawn),.,13%,?,1.3%,1.9,-2.1%,.
SMILES,Menin-MLL FL inh,gsp antag,gsp ag,ClpP mod,D2 agonist,PINK1 expr mod,Sfp inh
CC1CC(C)CN(C(=O)COC(=O)c2nccnc2N)C1 (stereo not drawn),.,6%,-16%,3.3%,9.2,3.2%,.
C=CCN1N=C(c2ccc(NC(=O)c3ccccc3)cc2)CSC1=O,-1.0,1%,-33%[inhibitor],-3.0%,-3.9,1.8%,-5%
COc1c(C)cc(S(=O)(=O)NCc2ccco2)c(C)c1C,1.6,-2%,-3%[15.4 µM],1.6%,-0.2,6.0%,10%
CS(=O)(=O)N(CC(=O)Nc1c(F)cccc1F)c1ccc(C23CC4CC(CC(C4)C2)C3)cc1,0.2,-8%,-25%,0.9%,-0.8,?,11%
O=C(CCl)NC(Cc1c[nH]c2ccc(OCc3ccccc3)cc12)C(=O)O (stereo not drawn),-0.4,-2%,-1%,-2.5%,0.9,1.3%,14%
Cc1cc(C)cc(NC(=O)CSCc2cc(=O)n3ccsc3n2)c1,.,-9%,-17%,-1.7%,1.2,0.5%,5%
O=C(C1=C[C@@H](c2ccccc2)C[C@@H](OCCCCO)O1)N1CCN(Cc2ccc3c(c2)OCO3)CC1,-1.6,-9%,.,-2.2%,-0.9,-1.1%,3%
CC(=NNC(=S)N1CCCCCC1)c1ccccn1,.,-9%,11%,-8.1%,-14,-2.0%,.
O=C1NC(c2ccc(Br)cc2)Nc2ccccc21 (stereo not drawn),-1.6,1%,2%[15.4 µM],-0.8%,-5.3,6.2%,18%
Cc1cccc(C(=O)N2CCC(=O)N([C@H](COCc3cccc(Cl)c3)Cc3ccccc3)CC2)c1,-1.3,.,.,2.5%,.,6.5%,9%
COC(c1ccccc1)c1nc2ccccc2[nH]c1=O (stereo not drawn),-0.6,16%,-3%[15.4 µM],-2.9%,0.5,2.9%,13%
CCOC(=O)N1CCN(C(=O)C(=O)Nc2sc3c(c2C#N)CC(C)(C)OC3)CC1,.,-10%,-25%,-0.8%,-1.6,-0.1%,-15%
CCOC(=O)c1ccccc1Nc1cn(C(C)=O)c2ccccc12,0.1,22%,-4%,?,-9.7,28%,-13%
COc1cc(/C=C/C(=O)NC(C)C2CC3CCC2C3)cc(OC)c1OC (stereo not drawn),1.9,10%,-2%,.,0.1,-0.9%,3%
Cc1ccc(OCCCC(=O)Nc2ccc3c(c2)OCO3)cc1,4.2,7%,-16%,0.7%,1.9,3.4%[38.3 µM],0%
COc1ccc(/C=C/c2ccncc2)c2ccccc12,6.4,1%,-42%[inhibitor],-2.3%,1.5,8.5%[38.3 µM],-13%
CCC(C)(C)NC(=O)CN(C(=O)c1csnn1)c1ccccc1-c1ccccc1,-0.5,12%,-9%[15.4 µM],.,0.4,0.0%,-1%
CC(=O)Nc1nc(-c2ccc([N+](=O)[O-])cc2)cs1,-0.2,3%,18%,0.6%,6.5,-0.1%,17%
CN(C(=O)COC(=O)c1cc2ccccc2cc1O)C1CCCCC1,.,-16%,-46%[inhibitor],-6.4%,0.9,2.5%,.
CC1CN(S(=O)(=O)c2cccc(-c3csc(-c4ccccc4)n3)c2)CC(C)O1 (stereo not drawn),-0.2,5%,?,-13%,-3.5,2.5%,-6%
Cc1cccc(NC(=S)N2CCN(Cc3ccc4c(c3)OCO4)CC2)c1C,0.2,-2%,-5%,0.2%,-5.1,-0.3%,-2%
CCOC(=O)N1CCN(CC(O)c2ccc3c(c2)CCN3)CC1 (stereo not drawn),-2.2,-12%,?,-5.4%,1.7,1.9%[38.3 µM],3%
CC(C)(C)c1ccc(C(=O)N/C(=C\c2cccc([N+](=O)[O-])c2)C(=O)Nc2cccc(C(=O)O)c2)cc1,-0.4,5%,-12%[15.4 µM],-1.1%,-8.2,1.2%,?
O=C(CN1C(=O)S/C(=C\C=C\c2ccccc2)C1=O)Nc1ccc(O)cc1,2.6,6%,-15%,?,0.0,2.6%,-23%
Cn1ncc(-c2ccno2)c1C(=O)O,-3.8,3%,-2%[15.4 µM],.,2.7,-1.1%,7%
SMILES,Menin-MLL FL inh,gsp antag,gsp ag,ClpP mod,D2 agonist,PINK1 expr mod,Sfp inh
CS(=O)(=O)N(CC(=O)N1CCN(C(c2ccccc2)c2ccccc2)CC1)C1CCCCC1,-0.6,?,-3%,0.3%,0.7,.,3%
COC(=O)c1c(-c2cccc(C)c2)csc1NC(=O)C1CCCO1 (stereo not drawn),9.6,?,0%[15.4 µM],1.1%,2.8,2.2%,9%
Cc1ccc2nc(Cl)c(/C=N/NC(=O)c3ccccc3O)cc2c1,30[activator],35µM*,-11%,1.0%,-5.3,?,7%
COc1ccc([N+](=O)[O-])cc1NC(=O)C(C)OC(=O)CC1CCCC1 (stereo not drawn),.,-22%,-3%,0.5%,2.6,1.1%,.
Cc1nn(Cc2ccccc2Cl)c(C)c1C(=O)Nc1nnc(C2CC2)s1,-1.1,?,15%,1.0%,8.1,-1.9%,3%
CC(=O)Oc1ccc(OC(C)=O)c(S(=O)(=O)c2ccc(C)c(C)c2)c1,5.5,-9%,-26%,-1.2%,?,0.7%,4%
CC1CCCC(C)N1/N=C/c1ccc([N+](=O)[O-])cc1 (stereo not drawn),0.9,-4%,-3%,.,-4.7,4.5%,-15%
O=C(Nc1ccccc1Cl)c1cc(C2CCCN(C(=O)c3ccccc3)C2)on1 (stereo not drawn),.,.,.,-0.1%,2.9,0.4%,.
COc1ccc(CC(=O)N[C@@H](CCSC)c2nc3ccccc3[nH]2)cc1,-0.9,5%,-1%[15.4 µM],.,-4.6,-0.3%,15%
C[C@]12CC[C@@H]3c4ccc(OC(=O)c5ccccc5)cc4CC[C@H]3[C@@H]1CC[C@@H]2O,-1.2&2.6,-6%,.,-0.8%,1.9,-0.1%,-12%&-23%
CC1(C)CC(c2nc(-c3ccc([N+](=O)[O-])cc3)cs2)CCO1 (stereo not drawn),5.4,.,7%[15.4 µM],.,4.1,1.6%,?
